Screens as filed in PubChem BioAssay.
A1 apoptosis 2 = A1 inhibition read as caspase activation | MEF A1-2A-BIM cells, caspase-Glo luminescence, 3 h; percent of clofoctol response, DMSO zero | caspase activation, % (no concentration beside the values) | 24,000 tested, under 10 active; in the data active = caspase activation above about 5.9%;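 also: wells of about 30 µL received 50 nL stock; the first replicate is given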
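Test system – A1-2A-BIM-expressing MEF cells · Input – 2500 cells/well · Medium – RPMI-1640 growth medium with 10% FBS · Compound dosing – 50 nL pinned compound · Timing – 3 h compound exposure at 37 °C · Technique – Caspase-Glo luminescence (DEVD substrate) · Evaluation – Caspase-3/7 activity from luminescence increase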
An asterisk follows results filed as active. The list is partial, so the mix of outcomes need not match the whole.

C[C@@H]1CN([C@H](C)CO)C(=O)CCCn2cc(nn2)CO[C@@H]1CN(C)S(=O)(=O)c1ccc(C#N)cc1
  A1 apoptosis 2: 0.0
[N-]=[N+]=NCc1ccccc1C[C@]1(C(=O)NCc2ccccc2)COC(c2ccc(OCCCO)cc2)=N1
  A1 apoptosis 2: 0.6
COc1ccc(S(=O)(=O)Nc2cccc3c2O[C@H](CN(C)Cc2ccncc2)[C@H](C)CN([C@H](C)CO)C3=O)cc1
  A1 apoptosis 2: -0.3
C[C@@H]1CN([C@@H](C)CO)C(=O)c2cc(NC(=O)Nc3ccc4c(c3)OCO4)ccc2O[C@@H](C)CCCCO[C@H]1CN(C)CC1CCCCC1
  A1 apoptosis 2: 0.9
CN1CCN(C(=O)C2=C[C@@H](c3coc4ccccc4c3=O)C[C@@H](OCCCCO)O2)CC1
  A1 apoptosis 2: 0.1
COc1ccc(S(=O)(=O)N(C)C[C@H]2OCCCC[C@H](C)Oc3ccc(NS(=O)(=O)c4ccccc4)cc3C(=O)N([C@H](C)CO)C[C@@H]2C)cc1
  A1 apoptosis 2: 1.0
CC(C)NC(=O)Nc1ccc2c(c1)C(=O)N([C@H](C)CO)C[C@@H](C)[C@@H](CN(C)C(=O)Nc1ccc(F)cc1)O2
  A1 apoptosis 2: -0.8
C[C@@H]1CCCCO[C@@H](CN(C)Cc2ccncc2)[C@@H](C)CN([C@H](C)CO)C(=O)c2cc(N(C)C)ccc2O1
  A1 apoptosis 2: -1.3

Quoted from the entries so far (2 entries):
CC(C)NC(=O)Nc1ccc2c(c1)C(=O)N([C@H](C)CO)C[C@@H](C)[C@@H](CN(C)C(=O)Nc1ccc(F)cc1)O2
  A1 apoptosis 2: -0.8
C[C@@H]1CCCCO[C@@H](CN(C)Cc2ccncc2)[C@@H](C)CN([C@H](C)CO)C(=O)c2cc(N(C)C)ccc2O1
  A1 apoptosis 2: -1.3

Quoted from the listing:
Under A1 apoptosis 2, `C[C@@H]1CCCCO[C@@H](CN(C)Cc2ccncc2)[C@@H](C)CN([C@H](C)CO)C(=O)c2cc(N(C)C)ccc2O1` is entered as -1.3
Under A1 apoptosis 2, `CN1CCN(C(=O)C2=C[C@@H](c3coc4ccccc4c3=O)C[C@@H](OCCCCO)O2)CC1` is entered as 0.1
Under A1 apoptosis 2, `C[C@@H]1CN([C@H](C)CO)C(=O)CCCn2cc(nn2)CO[C@@H]1CN(C)S(=O)(=O)c1ccc(C#N)cc1` is entered as 0.0
Under A1 apoptosis 2, `C[C@@H]1CN([C@@H](C)CO)C(=O)c2cc(NC(=O)Nc3ccc4c(c3)OCO4)ccc2O[C@@H](C)CCCCO[C@H]1CN(C)CC1CCCCC1` is entered as 0.9
